Compound activity (PubChem)
Vaccinia mCherry: qHTS for Stage-Specific Inhibitors of Vaccinia Orthopoxvirus: mCherry Reporter Primary qHTS | Vaccinia virus mCherry reporter infection, fluorescence; about a quarter of the inactives have no number | Potency, µM (highest dose often 36.5 µM), for the others: at the top dose activity change, negative = inhibition, actives largely listed as inhibitors | 0.63% of 310,000 active; active = well fitted inhibition curve with a large enough effect; inconclusive = small, poorly fitted or top-dose-only effect; inactive = no such curve, though single readings can be large or run the other way; tested in A549 cells; also: nearly all actives have a fitted effect of over 35% in size; inactives centre near -10
Vaccinia Venus: qHTS for Stage-Specific Inhibitors of Vaccinia Orthopoxvirus: Venus Reporter Primary qHTS; 0.46% of 330,000 active; Vaccinia virus Venus reporter expression, fluorescence; Potency, µM (highest dose often 36.5 µM), for the others: at the highest dose activity change, negative = inhibition, hits mostly inhibitors; active means well fitted inhibition curve with a large enough effect; inconclusive means small, poorly fitted or top-dose-only effect; inactive means no such curve, though single readings can be large or run the other way; tested in A549 cells; also: nearly all actives have a fitted effect of over 30% in size; inactives centre near -10
Starred values were filed as active, the others as inactive; i = inactive; ? = inconclusive; · = no result given; & = joins results of further samples; [ ] = another dose, or the depositor's remark. % is scaled to controls: 0 for no effect and ±100 for the full control effect; potency is read from the fitted curve at half-maximal effect.

SMILES	Vaccinia mCherry	Vaccinia Venus
CC12CCC3(CC1CCC1OC12)OCCO3 (stereo not given)	-21%	-10%
COCCCn1c(SCc2nnc(-c3ccccc3)o2)nc2sc3c(c2c1=O)CCC3	-23%	-20%
Cc1cc2c(cc1S(=O)(=O)CCC(=O)N(C)C1CCCCC1)OCC(=O)N2	-5%&4%	-19%&4%
Cc1cc(C)c2c(CC(=O)Nc3ccccc3C(F)(F)F)coc2c1	6%	-2%
CN1CCN(CC(=O)Nc2cc(N(C)C)nc3ccccc23)CC1	-4%	1%
CNc1ccc(Cl)nn1	-21%	-12%
O=C(Nc1ccc(Cl)c(-c2nc3cc(Cl)ccc3o2)c1)c1cc([N+](=O)[O-])ccc1N1CCOCC1	4%	-4%
Cc1ccc2nc(NC(=O)CSc3nc(=O)n(CCCN(C)C)c4c3CCC4)sc2c1	-15%	-6%
CS(=O)(=O)N1c2ccccc2[C@]2([C@@]34C[C@H]5C(=O)N[C@@H](Cc6ccccc6)C(=O)N5[C@@H]3N(S(C)(=O)=O)c3ccccc34)C[C@H]3C(=O)N[C@@H](Cc4ccccc4)C(=O)N3[C@H]12	i	6%
O=C(Nc1cccc(-c2nc3cc(Cl)ccc3o2)c1)c1cc([N+](=O)[O-])ccc1N1CCOCC1	1%	3%
CC(=O)Nc1ccc(NC(=O)C(Cc2ccccc2)NS(=O)(=O)c2ccc3c(c2)oc(=O)n3C)cc1 (stereo not given)	-4%	4%
COC(=O)c1c(N2C(=O)Nc3ccccc3N2O)sc2c1CCCC2	-11%	-4%
Cc1ccccc1N1CC2=C(C1=O)C(c1ccccc1)NC(=O)N2C (stereo not given)	-21%	-7%
C/C(=N\NC(=O)CNC(=O)c1cccs1)c1ccc(Cl)c(Cl)c1	-25%	-13%
CC(C)(C)NC(=O)C(c1ccnc2ccccc12)n1c(=O)c(-c2ccccc2)nc2ccccc21 (stereo not given)	-7%	7%
O=C(c1cnn2c1NC(=C1CC1)C=C2C(F)F)N1CCc2ccccc21	-7%	-21%
CCN1CCN(C(=O)c2cc(COc3ccc4ncccc4c3)on2)CC1	i	-18%
COc1ccc(-c2csc(N3C(=O)C4C5c6ccccc6C(c6ccccc65)[C@@H]4C3=O)n2)cc1 (stereo not given in full)	-9%	3%
CCCn1cnnc1CNC(=O)[C@H]1O[C@@H](n2ccc(=O)[nH]c2=O)[C@H](O)[C@@H]1O	-7%	12%
CCOCCn1c(CN2CCc3ccccc3C2)nc2c1c(=O)n(C)c(=O)n2C	9%	14%
CC(=O)OC1C2C(OC(=O)Cc3ccccc3)C(C)CC2(OC(C)=O)C(=O)/C(C)=C/C2C(CC[C@@]13CO3)C2(C)C (stereo not given in full)	-16%	-7%
Cc1ccc2cc(CCNC(=O)c3ccc(Br)o3)c(=O)[nH]c2c1	i	-9%
O=C(NC(=S)Nc1ncccn1)c1ccc(F)cc1	-12%	9%
O=C(Cc1ccc(F)cc1)NC(Cc1c[nH]c2ccccc12)C(=O)O (stereo not given)	-6%	-2%
O=C(NCCN1CCOCC1)/C(=C/c1ccc(F)cc1)NC(=O)c1ccccc1	-20%	-13%

(list continues)
SMILES	Vaccinia mCherry	Vaccinia Venus
O=C(/C(=C/O)N=Nc1ccccc1)c1ccco1	?	-5%
Cc1ccc(S(=O)(=O)NCC(=O)OC(C)C(=O)NCc2ccc3c(c2)OCO3)cc1 (stereo not given)	-1%	-18%
COc1cccc(-n2ccnc2SCC(=O)Nc2cc(OC)ccc2OC)c1	·	-9%
O=C(Nc1ccc(-c2nc3cccnc3s2)cc1)c1ccc(Br)o1	-10%	-21%
O=C(CC(c1ccccc1)C1CCCCC1=O)c1ccccc1 (stereo not given)	i	-3%
CCOc1nc(CC)nc(NC(=O)NS(=O)(=O)c2ccccc2Cl)n1	·	-1%
O=C(CN1CCN(S(=O)(=O)c2ccc3ccccc3c2)CC1)N1CCc2ccccc2C1	?	?
CCn1c(O)c(N=NC(=O)c2ccc(CSc3nncn3C)cc2)c2ccccc21	-12%	?
CCOC(=O)CSc1nc2ccccc2c(=O)n1-c1cccc(C)c1	-9%	1%
Cc1noc(C)c1COC(=O)CCCOc1ccc(Cl)cc1Cl	-12%	-8%
COc1ccc(NC(=O)c2ccc3c(c2)OCO3)cc1[N+](=O)[O-]	-7%	-6%
O=C(CCc1nc(-c2ccccc2Cl)no1)NCC1CCCO1 (stereo not given)	-23%	-11%
CC(C)=CC(=O)N1CCCc2ccccc21	-15%	-9%
O=C(CSc1nccn1-c1ccc(Cl)cc1)Nc1nc2ccccc2s1	-3%	-19%
Cc1ccc(C)c(NC(=O)C(OC(=O)c2ccc(C)s2)c2ccccc2)c1 (stereo not given)	-10%	-14%
O=C(c1cc2ccc3cccnc3c2[nH]1)N1CCN(c2cccc(Cl)c2)CC1	-2%	3%
O=C(Nc1ccccc1N1CCCC1)c1cccc(-c2cc3ccccc3oc2=O)c1	-15%	-5%
CC(=O)N1CCc2cc(NC(=O)C3(C)CCN3Cc3ccccc3OC(F)F)ccc21 (stereo not given)	?	-5%
COc1cccc2ccc(/C=C/c3ccc4c(c3)OCO4)nc12	-17%	-25%
CCc1ccc(/C=N/NC(=O)Cc2cccn2C)cc1	i[7.34 µM]	-5%[7.34 µM]
CC(=O)N1CCN(c2ccc(NCc3ccc(C)s3)cc2)CC1	21%	19%
O=C(OCCO)c1cc(Cl)c(C(=O)OCCO)cc1Cl	-9%	-29%
COc1ccc2c(c1)CC[C@@H]1[C@@H]2CC[C@]2(C)[C@@H](C(=O)O)C[C@@H]12	i	-1%
CC(C)N(Cc1ccccc1)C(=S)NC(=O)C1(C)CC1(Cl)Cl (stereo not given)	-6%	-8%
COc1ccc(CNC(=O)C(OC(C)=O)c2ccccn2)cc1 (stereo not given)	-18%	-12%

Carrying on.
SMILES	Vaccinia mCherry	Vaccinia Venus
COc1ccc(-n2nnc3c(=O)n(C/C=C/c4ccccc4)cnc32)cc1	-3%	-3%
CN1CCN(S(=O)(=O)c2ccc(NC(=O)C3CCCO3)cc2)CC1 (stereo not given)	i	-13%
NC(c1ccccc1)c1csc(Nc2ccc(S(N)(=O)=O)cc2)n1 (stereo not given)	i	-3%
CC(O)(c1ccc(F)c(F)c1)c1nc(-c2ccc(Cl)cc2)cs1 (stereo not given)	i	-8%
COc1ccc(/C=N/NC(=O)c2cccc(NC(C)=O)c2)c(C(=O)O)c1OC	-5%	-19%
CCCCN(C(=O)c1ccc(OC)c([N+](=O)[O-])c1)c1c(N)n(CCC)c(=O)[nH]c1=O	-13%	-8%
COc1ccc(NC(=O)CCCc2ccccc2)cc1OC	i	-17%
Cc1onc(C(=O)NN)c1C(=O)Nc1ncc(C(F)(F)F)cc1Cl	?	-4%
Cc1ccc(C)c(NC(=O)C(c2ccccc2)N2CCN(CC(=O)NC3CC3)CC2)c1 (stereo not given)	i	-7%
O=C(NCc1ccco1)c1ccccc1NC(=O)C1CC(=O)N(c2ccc(Cl)cc2)C1 (stereo not given)	i	-12%
Cc1cccc(C)c1NC(=O)C1(C)CSCC(=O)N1CCCn1ccnc1 (stereo not given)	-9%	-1%
COc1ccccc1CNC(=O)CNC(=O)c1sc2ccccc2c1Cl	-4%	-16%
C=CCn1c(SCC(=O)Nc2ccc(N3CCOCC3)cc2)nc2ccccc2c1=O	-10%	-2%
CCN(C(=O)CN1CCN(c2ccccc2F)CC1)c1c(N)n(Cc2ccccc2)c(=O)[nH]c1=O	-23%	3%
CCC1CCC2(CC1)NC(=O)N(CC(=O)Nc1ccc(OC)cc1)C2=O (stereo not given)	?	-26%
O=C(Oc1ccc(Cl)c2cccnc12)N1CCCCC1	-10%	0%
Cc1cnc(SCC2CCCO2)nc1C1CCCN(Cc2nc(-c3ccccc3)cs2)C1 (stereo not given)	-12%	-8%
Cc1ccc(N(CCC#N)C(=O)COC(=O)C2CCN(c3ccc(C(F)(F)F)cn3)CC2)cc1	-5%	-15%
Clc1ccc(-c2nnnn2-c2ccc(Cl)c(Cl)c2)cc1Cl	·	-8%
O=C(/C=C/c1cccs1)NCc1cccnc1	-6%	-7%
CC(C)C(c1nnnn1Cc1ccc(F)cc1)N1CCN(Cc2ccc3c(c2)OCO3)CC1 (stereo not given)	·	?
COc1ccc(C(C(=O)NC2CCCC2)N(C(=O)c2ccco2)c2cc3c(cc2C(C)=O)OCO3)cc1 (stereo not given)	-13%	-13%
CCOc1c(C)cc2[nH]c(CCC(=O)O)nc2c1C	·	6%
CC1(C(=O)NS(=O)(=O)c2ccc(Cl)cc2)CCN1C(=O)CC1CCCC1 (stereo not given)	-14%	6%
C=CCn1nnc2sc3c(c2c1=O)CCC(C)C3 (stereo not given)	-14%	-2%

Later entries
SMILES	Vaccinia mCherry	Vaccinia Venus
O=C(COc1ccc(S(=O)(=O)N2CCc3ccccc32)cc1Cl)NCc1ccccn1	-23%	-12%
CN(Cc1c(F)cccc1Cl)C(=O)c1ccc(COc2ccccc2)cc1	-24%	-15%
COc1cccc(Cn2nnc(C(=O)NCc3ccc(Cl)cc3Cl)c2N)c1	-11%	-9%
CCCn1c(=O)c2sccc2n2c(CCCC(=O)N3CCN(c4ccc(OC)cc4)CC3)nnc12	-9%	-3%
COC(=O)c1cccnc1-n1c(=O)c2cccnc2n(CC(=O)Nc2cccc(C)c2)c1=O	-1%	2%
O=C(NCCN1C(=O)C2C3C=CC(C3)C2C1=O)Nc1ccccc1O (stereo not given)	-11%	-1%
Cc1ccc(-n2c(C)cc(C(=O)OCC(=O)N(C)C3CCS(=O)(=O)C3)c2C)cc1 (stereo not given)	·	-25%
O=Cc1cc(Cl)ccc1OCCN1CCC(Cc2ccccc2)CC1	-11%	?
CCOC(=O)C1CCN(c2ccc([N+](=O)[O-])c(C(C)=O)c2)CC1	i	-17%
CCSc1nnc(NC(=O)CCNC(=O)c2ccccc2Cl)s1	i	-26%
Cc1onc(-c2ccccc2)c1C(N)=O	-20%	-15%
COc1cc(-c2noc(CCCC(=O)Nc3ccc(C(N)=O)cc3)n2)cc(OC)c1OC	-12%	10%
O=C(CCC(=O)N1CCN(S(=O)(=O)c2ccc(Cl)cc2)CC1)NC1CCCc2ccccc21 (stereo not given)	-27%	-22%
Cc1nnc(NC(=O)CSc2nc3c([nH]c4ccccc43)c(=O)n2-c2ccccc2)s1	-10%	-11%
CCOc1ccc(CNC(=O)C2CCN(c3nnc(-n4cccc4CNc4ccc(C)cc4)s3)CC2)cc1OC	?	?
Cc1ccc(OCCNC(=O)C(=O)NCc2ccco2)cc1	-6%	-11%
Cc1ccc(S(=O)(=O)N2CCOCC(=O)NCCOCCNC(=O)COCC2)cc1	·	-14%
Oc1ccc2c3c1O[C@H]1c4[nH]c5ccccc5c4C[C@@]4(O)C(C2)N(CC2CC2)CCC314 (stereo not given in full)	-18%	-6%
Cc1cccc(C(=O)Nc2cc(-c3nc4cccnc4s3)ccc2C)c1	?	?
CCC(=O)N1N=C(c2c(-c3ccccc3)c3cc(Cl)ccc3[nH]c2=O)CC1c1ccco1 (stereo not given)	i	?
Cc1ccc(NC(=S)N2C3CCCC2CC(NC(=O)C2CC2)C3)cc1C (stereo not given)	i	-12%
O=C(O)CCN1C(=O)CC(N2C(=O)/C(=C/c3ccc(Cl)cc3)SC2=S)C1=O (stereo not given)	16%	65%[activator]
Nc1nc(-c2ccccn2)nc(N)c1Cc1c(F)cccc1Cl	?	-23%
Cc1ccc(C(=O)Nc2nncs2)cc1S(=O)(=O)N1CCOCC1	0%	-15%
CCCCN1C(=O)C(CC(=O)NCc2cccc3ccccc23)CC(C(=O)N(C(C)C)C(C)C)=C1C (stereo not given)	2%	-5%
O=C(CN1CCN(c2ccccc2Cl)CC1)NC1CCCc2ccccc21 (stereo not given)	-9%	-10%
O=S(=O)(O)c1cc(O)c2cc(Nc3ccccc3)ccc2c1	i	-9%

A draw from above in order of molar mass, falling.
SMILES	Vaccinia mCherry	Vaccinia Venus
O=C(CCC(=O)N1CCN(S(=O)(=O)c2ccc(Cl)cc2)CC1)NC1CCCc2ccccc21 (stereo not given)	-27%	-22%
CCCCN(C(=O)c1ccc(OC)c([N+](=O)[O-])c1)c1c(N)n(CCC)c(=O)[nH]c1=O	-13%	-8%
Oc1ccc2c3c1O[C@H]1c4[nH]c5ccccc5c4C[C@@]4(O)C(C2)N(CC2CC2)CCC314 (stereo not given in full)	-18%	-6%
COc1ccccc1CNC(=O)CNC(=O)c1sc2ccccc2c1Cl	-4%	-16%
CCOC(=O)CSc1nc2ccccc2c(=O)n1-c1cccc(C)c1	-9%	1%
COc1ccc2c(c1)CC[C@@H]1[C@@H]2CC[C@]2(C)[C@@H](C(=O)O)C[C@@H]12	i	-1%

Random excerpt: seven compounds from above.
SMILES	Vaccinia mCherry	Vaccinia Venus
CCOC(=O)C1CCN(c2ccc([N+](=O)[O-])c(C(C)=O)c2)CC1	i	-17%
O=C(CCC(=O)N1CCN(S(=O)(=O)c2ccc(Cl)cc2)CC1)NC1CCCc2ccccc21 (stereo not given)	-27%	-22%
O=C(CN1CCN(c2ccccc2Cl)CC1)NC1CCCc2ccccc21 (stereo not given)	-9%	-10%
COC(=O)c1cccnc1-n1c(=O)c2cccnc2n(CC(=O)Nc2cccc(C)c2)c1=O	-1%	2%
COc1cccc(Cn2nnc(C(=O)NCc3ccc(Cl)cc3Cl)c2N)c1	-11%	-9%
Cc1nnc(NC(=O)CSc2nc3c([nH]c4ccccc43)c(=O)n2-c2ccccc2)s1	-10%	-11%
O=S(=O)(O)c1cc(O)c2cc(Nc3ccccc3)ccc2c1	i	-9%

One compound at a time, from the list above:
`COc1cc(-c2noc(CCCC(=O)Nc3ccc(C(N)=O)cc3)n2)cc(OC)c1OC` as listed: Vaccinia mCherry = -12%; Vaccinia Venus = 10%
`COc1cccc(Cn2nnc(C(=O)NCc3ccc(Cl)cc3Cl)c2N)c1` as listed: Vaccinia mCherry = -11%; Vaccinia Venus = -9%
